# Screens (PubChem BioAssay)
# CDC25B CDK2 inh: primary biochemical HTRF screen for blockers of M-phase inducer phosphatase 2 binding to CDK2/cyclin A; P30305+P24941; HTRF CDC25B-CDK2/CyclinA binding, anti-His/anti-Flag; hits give high values; z-score (concentration not given with the values); hit rate 0.72% among 94,000; AID 1259370, 2018;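 also: score is relative to mean and SD of negative controls; strong numbers were not always called active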
# TAR Tat displ: TAR RNA-Tat peptide displacers, HIV-1, primary screen, biochemical, FRET, FAM/TAMRA-labeled Tat. HIV-1 TAR RNA, Tat peptide displacement FRET; hits give high values. AID 1259389, 2018. z-score (concentration not given with the values). hit rate 0.6% among 100,000;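 also: score is relative to mean and SD of negative controls; some compounds called inactive have numbers as strong as hits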
# Active calls of the source: *; x = no result given; & = joins results of further samples.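 The calls were made as follows: active = z-score from 3 up in half or more of its runs; inactive = the rest.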
SMILES,CDC25B CDK2 inh,TAR Tat displ
O=[N+]([O-])c1cc(Br)cnc1Sc1n[nH]c(-c2ccccc2)n1,0.35,x
COC(=O)c1cccc(NC(=O)NC(=O)c2ccco2)c1,-2.8,x
Cc1ccc(-c2nnc3ccc(SCC(=O)OCc4ccccc4)nn23)cc1,-1.5,x
Cc1nc(-c2cc(C#N)c(Sc3ccccc3)nc2C)cs1,-1.4,x
O=C(/C=C/C=C/c1ccc2c(c1)OCO2)N1CCCCC1,-1.2,2.4
CN(NC(=O)NC(=O)c1c(Cl)cccc1Cl)c1cccc(F)c1C#N,-0.86,x
COc1ccc(-c2cc(SC)n[nH]2)cc1,-0.68,2
CCN(CC)CCNC(=O)CCc1nnc2ccc(N3CCC(C)CC3)nn12,x,-0.88
CN(C(=O)Cc1c(C(=O)O)n(C)c2ccccc12)c1ccc(F)cc1,-0.36,x
COc1cc2c(cc1OC)n(CC(=O)NC1CCC(C)CC1)n1c(C)cc(=O)nc21 (configuration not stated),-1.1,1.4
C=C1C(=O)[C@]23[C@H](O)[C@H]1CC[C@H]2[C@@]12COC3(O)[C@H](O)[C@@H]1C(C)(C)CC[C@@H]2O,x,1.7
Cc1ccc(SCc2cc(=O)n3cc(C)sc3n2)cc1,-2.3,-0.68
Cc1ccc(-n2cc(-c3ccccc3)c3c(NCCO)ncnc32)cc1,-2.2,x
CCCN(CCC)S(=O)(=O)c1ccc(C(=O)Nc2ccc3c(c2)COCO3)cc1,-0.45,x
Cn1nnc2c(N3CCN(c4cccc(Cl)c4)CC3)ncnc21,x,1.8
COc1ccc2nc(NC(=O)c3snnc3C)sc2c1,0.96,1.2
Cc1cccn2cc(-c3cccc(S(=O)(=O)N4CC(C)OC(C)C4)c3)nc12 (configuration not stated),1.6,0.11
CCCCc1nn2cc(-c3ccc(CC)cc3)nc2s1,1.9,-0.4
O=C(CCc1nc2cccnc2n1-c1ccccc1)NC1CCCCC1,-1.1,-0.83
Cn1c(=O)n(C)c2cc(Oc3ccccc3)c(NC(=O)NCC3CCCO3)cc21 (configuration not stated),x,0.12
Cc1ccc(OCc2nc(C#N)c(NCCCn3ccnc3)o2)cc1,-2.6,-0.76
COc1ccc(SCCC(=O)NCc2ccncc2)cc1,-0.84,x
Cn1cc(S(=O)(=O)Nc2ccccc2N2CCOCC2)c(C(F)(F)F)n1,-0.57,x
O=C(NCC(c1ccco1)S(=O)(=O)c1cccs1)C(=O)NC1CCCC1 (configuration not stated),x,1.8
CC1=C(C(=O)OCC2CCCO2)C(c2c(F)cccc2Cl)C2=C(CC(C)(C)CC2=O)N1 (configuration not stated),-0.53,-0.73
O=C(c1ccccc1)N1c2nc(-c3ccco3)nn2C2(CCCCC2)[C@@H]2CCCC[C@@H]21,-1.1,2
Cc1cccc(C)c1NC(=O)C1CC2CCCN2C12C(=O)N(C)c1ccccc12 (configuration not stated),x,-0.51
Cc1nc2c(c(C)c1CCC(=O)N1CCOCC1)c(=O)n(C)c(=O)n2C,-1.5,1.2
Cc1cn2c(=O)c(S(=O)(=O)N3CCN(c4cc(Cl)ccc4C)CC3)c(C)nc2s1,x,0.27
Cc1ccc(-c2noc(COc3cc(C)ccc3C)n2)cc1,-0.7,x
Cn1nnnc1SCCCNCc1cc(Cl)ccc1OCc1ccccc1,-1.2,1.5
COc1ccc(Cl)cc1Nc1nc(-c2c(C)nc3ccccn23)cs1,6.6,8.3*
Cc1ccc(N2C(=S)N(c3ccccc3)C3CS(=O)(=O)CC32)cc1 (configuration not stated),-1.2,x
CCCn1c(=O)c(C(=O)OCC)c(O)c2cc(Br)ccc21,-0.15,x
O=C(c1cc(-c2ccc3c(c2)OCCO3)on1)N(Cc1ccc(Cl)cc1)C1CCS(=O)(=O)C1 (configuration not stated),-0.07,0.87
CCN(c1ccccc1)c1c(-c2ccc3c(c2)OCC(=O)N3)c(=O)c1=O,x,-0.56
COC(=O)c1ccc(N2CCc3cc4ccc(C)cc4nc32)cc1,-1.1,-0.47
CC(=O)Nc1nc2cc(NS(=O)(=O)c3cccc4nsnc34)ccc2s1,x,0.94
CC(C)CN(CCNS(=O)(=O)c1ccc(-c2ccc(=O)[nH]n2)s1)CC(C)C,x,2
CCOC(=O)c1nn(-c2ccc(Cl)cc2)c(=O)c2c(NC(C)=O)scc12,-1.6,2.7
Cc1ccc(CNC(=O)c2cnc3sccn3c2=O)cc1,-0.71,x
Cc1ccccc1-c1nc2c3c4c(sc3ncn2n1)CCCC4,0.44,0.5
Cc1ccc(C2=NS(=O)(=O)N(C)C(C(=O)N3CCN(C(=O)C(C)(C)C)CC3)=C2)cc1,-1.3,2.1
COc1ccccc1NC(=O)NC1(C(F)(F)F)Oc2ccc(Cl)cc2O1 (configuration not stated),0.5,x
COC(=O)c1sc2cccc(F)c2c1S(=O)(=O)N1CCc2ccccc2C1,x,1.6
COc1cccc2c1Oc1nc(-c3cc(Br)ccc3O)[nH]c(=O)c1C2,-0.82,18*
CC1(C)C=Cc2c(cc3occ(-c4ccc5c(c4)OCO5)c(=O)c3c2O)O1,x,-1.4
c1ccc(C23OC4C5C6CC(C7C6C4C72)C53)cc1 (configuration not stated),-1.9,x
COc1ccc(OC2CCN(S(=O)(=O)c3ccc(-n4cnnn4)c(C)c3)CC2)cc1,-0.93,0.24
CC1=CC(C)(C)N(C(=O)Nc2ccccc2)c2c(C)cc(C)cc21,-0.7,0.21
COCCOC(=O)c1c(C)oc2ccc(OCC(=O)OC)cc12,0.24,-0.2
O=C(NCCc1cccs1)c1ccc(Cl)cc1,0.67,x
C=CCN(C(=O)Cn1c(C(=O)OC)cc2sccc21)c1ccccc1,-1.7,-0.59
Cc1ccc(C(=O)NCCN(C)C)cc1NC(=O)C1=CSCCO1,x,1.7
Cc1cc(C)c2c(c1)-c1cc(C)nn1C(c1ccc(O)cc1O)N2 (configuration not stated),-2.2,-0.44
COc1ccc(-c2cc(C(=O)N3CCCC3c3ccco3)on2)cc1 (configuration not stated),1.1,0.94
Cc1ccc(S(=O)(=O)[C@H]2CS(=O)(=O)C[C@@H]2NCc2ccc3c(c2)OCO3)cc1,-1.9,-0.79
O=c1c2c(nc(NCCCO)n1Cc1ccccc1)-c1ccccc1CC21CCCC1,-1,-0.38
OCCNc1ccc(NCCO)nn1,0.17,x
Cc1ccc(-c2noc(CCCn3c(=O)[nH]c4cc5c(cc4c3=O)OCO5)n2)cc1,x,0.4

# 14 entries from above, bar-delimited.
canonical_smiles | CDC25B CDK2 inh | TAR Tat displ
COc1ccccc1NC(=O)NC1(C(F)(F)F)Oc2ccc(Cl)cc2O1 (configuration not stated) | 0.5 | x
COC(=O)c1sc2cccc(F)c2c1S(=O)(=O)N1CCc2ccccc2C1 | x | 1.6
COc1cccc2c1Oc1nc(-c3cc(Br)ccc3O)[nH]c(=O)c1C2 | -0.82 | 18*
CC1(C)C=Cc2c(cc3occ(-c4ccc5c(c4)OCO5)c(=O)c3c2O)O1 | x | -1.4
c1ccc(C23OC4C5C6CC(C7C6C4C72)C53)cc1 (configuration not stated) | -1.9 | x
COc1ccc(OC2CCN(S(=O)(=O)c3ccc(-n4cnnn4)c(C)c3)CC2)cc1 | -0.93 | 0.24
CC1=CC(C)(C)N(C(=O)Nc2ccccc2)c2c(C)cc(C)cc21 | -0.7 | 0.21
COCCOC(=O)c1c(C)oc2ccc(OCC(=O)OC)cc12 | 0.24 | -0.2
O=C(NCCc1cccs1)c1ccc(Cl)cc1 | 0.67 | x
C=CCN(C(=O)Cn1c(C(=O)OC)cc2sccc21)c1ccccc1 | -1.7 | -0.59
Cc1ccc(C(=O)NCCN(C)C)cc1NC(=O)C1=CSCCO1 | x | 1.7
Cc1cc(C)c2c(c1)-c1cc(C)nn1C(c1ccc(O)cc1O)N2 (configuration not stated) | -2.2 | -0.44
COc1ccc(-c2cc(C(=O)N3CCCC3c3ccco3)on2)cc1 (configuration not stated) | 1.1 | 0.94
Cc1ccc(S(=O)(=O)[C@H]2CS(=O)(=O)C[C@@H]2NCc2ccc3c(c2)OCO3)cc1 | -1.9 | -0.79

# New compounds follow:
SMILES,CDC25B CDK2 inh,TAR Tat displ
O=C(N1CCN(c2ccccc2Cl)CC1)C1(S(=O)(=O)c2ccc(Cl)cc2)CC1,0.96,x
CN1CCN(c2nc(N3CCN(CCO)CC3)nc3c2cnn3C)CC1,x,0.24
COc1cccc(C2c3c(oc4ccccc4c3=O)C(=O)N2c2nncs2)c1 (configuration not stated),-0.44,0.06
Cc1c(C(=O)Nc2ccc(-n3cnnn3)cc2)oc2cc(Br)ccc12,-5.9,1.9
NC(N)=NCc1cccc(I)c1,0.39,x
Fc1ccc(-c2noc3ncnc(N4CCN(c5ccc(Cl)cc5)CC4)c23)cc1,x,0.57
CC1(C(=O)NC2CCCCC2)Cn2c(cc3occc32)C(=O)N1Cc1ccco1 (configuration not stated),x,2.4
CC(C)c1ccc(Nc2nc3ccccc3c3nncn23)cc1,-0.22,0.27
O=C(Cn1c(=O)oc2ccccc21)Nc1ccc2nc3n(c(=O)c2c1)CCCC3,-0.06,-2.6
COc1ccccc1CN=C1NS(=O)(=O)C(c2ccc(C(C)C)cc2)=C1C,-7.1,-2.2
CCOc1ccc(-c2nc3ccc(OC(C)=O)cc3c(=O)o2)cc1,-1.8,x
O=C(Cn1c(-c2cccs2)cc2ccccc21)NCc1cccs1,-1,1.4
CCOC(=O)c1sc2nc(C)nc(N3CCC(C)CC3)c2c1C,0.2,x
CC(NC(=O)N1c2ccccc2Sc2ccccc21)c1ccccc1 (configuration not stated),-0.9,x
CCCN1CCN(C(=O)Cn2nc(C)c3sc4ccccc4c3c2=O)CC1,-1.1,1.1
O=C(Nc1c2c(nn1-c1ccc(Cl)cc1)CS(=O)(=O)C2)c1ccc(Br)o1,-0.31,x
c1ccc2c(c1)CCCC2C1=NCCN1 (configuration not stated),-1.4,0.4&-2
CCc1cc2c(cc3c(=O)n(CC(=O)NC4CCC(C)CC4)ncn32)s1 (configuration not stated),-0.66,-2.1
CCc1ccc2nc(NC3=NCN(CCOC)CN3)nc(C)c2c1,-0.77,x
O=C(O)c1ccc(COc2cccc(Cl)c2)o1,0.79,2
CC1=C(c2cccc(Br)c2)S(=O)(=O)NC1=NCc1ccccc1,-1.8,-0.15
CN1CCSc2ccc(C(=O)NCCN3CCCC3)cc21,-2.7,0.05
CCCCNc1nc2c(S(=O)(=O)c3cccc(Cl)c3)nnn2c2ccsc12,x,1.1
COCCN(Cc1ccco1)C(=O)CSc1c2c(nc3cc(Cl)ccc13)CCCC2,-0.09,0.09
CCOC(=O)c1csc(Cc2ccc(-c3csnn3)cc2)n1,-0.5,x
O=C(NCC1CCCO1)C1CC(c2ccc(F)cc2)=NO1 (configuration not stated),-0.75,0.7
CCC1Nc2c(sc3nc(C)cc(C)c23)C(=O)N1C1CCCCC1 (configuration not stated),-0.05,2.1
COC(=O)c1cnc(N2CCN(c3ncc(C(=O)OC)c(C(F)(F)F)n3)CC2)nc1C(F)(F)F,-1.1,x
COc1ccc(S(=O)(=O)[C@H]2CS(=O)(=O)C[C@@H]2NCCCc2ccccc2)cc1,-0.34,1.7
O=C(c1noc2c1CSc1ccccc1-2)N1CCN(c2ccc(Cl)cc2)CC1,-0.06,0.15
O=C(O)C1=CC(c2cc(F)ccc2F)n2ncnc2N1 (configuration not stated),x,1.9
CCc1ccc(-n2nnc(-c3nc(-c4ccc5c(c4)OCO5)no3)c2N)cc1,x,-0.25
Cc1ccc(-n2c(=O)c3c(c4cc(C)ccc4n3C)n(Cc3cc(=O)n4c(C)cccc4n3)c2=O)cc1,x,-0.78
Cc1ccc(C)n1-c1cccc2ccccc12,-2.9,0.68
Cn1c(=O)n(CC(=O)N2CCCC2)c(=O)c2cc(S(=O)(=O)Nc3cccnc3)ccc21,x,1.7
O=C1CC(c2ccc(Cl)cc2)C2=C(CC(c3ccc(F)cc3)CC2=O)N1 (configuration not stated),0.18,-1.7
CC(=O)OCC(=O)[C@@]1(O)[C@H](C)CC2C3CCC4=CC(=O)C=CC4(C)C3=CCC21C (some centres not stated),1.6,x
Cn1c(C(=O)NC2CC2)c(N2CCCC2=O)c2cc(F)ccc21,x,0.67
CCN(CC)CCn1c(C)c(C)c2c1ncn1nc(CSc3nc4ccccc4o3)nc21,0.09,0.87
Cc1c(S(=O)(=O)c2ccc(C(C)(C)C)cc2)nnn1-c1ccc(F)cc1,-1,-1.6
CCCCOc1ccccc1C1C(C(=O)OC(C)C)=C(C)NC2=C1C(=O)CCC2 (configuration not stated),-1.2,2.4
Cn1c(=O)c2c(nc3n(-c4ccc(O)cc4)c(-c4ccc(Cl)cc4)cn23)n(C)c1=O,2.1,-1.2
Cn1ncc2c(c(S(=O)(=O)Cc3ccc(Cl)cc3Cl)nn2C)c1=O,-3.1,x
CC1CC(C)CN(c2oc(/C=C/c3cccs3)nc2C#N)C1 (configuration not stated),-1.3,-1.5
CC1CCCCC1NS(=O)(=O)c1ccc2c(c1)CC(C)N2C(=O)C1CC1 (configuration not stated),x,0.3
O=C1OC(c2ccccc2)=N/C1=C/C=C/c1ccccc1,-1.7,x
CN1CCN(c2ccc(CNC(=O)C3CCCCC3)cc2)CC1,-2.3,x
CCCN(CCC)C(=O)CN1C(=O)N(c2ccc(CC)cc2)C2CS(=O)(=O)CC21 (configuration not stated),-2.8,1.6
O=C(c1ccco1)N1CCN(C(=O)c2cnn(-c3ccc(Cl)cc3)c2C2CCNCC2)CC1,x,-1.1
C#CCSc1n[nH]c(=S)s1,-1.5,x
CC1Cn2cc(C(=O)N3CCN(C(=O)c4ccco4)CC3)c(=O)c3c(Cl)ccc(c32)O1 (configuration not stated),x,0.28
O=C(Nc1ccc(S(=O)(=O)Nc2nccs2)cc1)c1cc2ccccc2oc1=O,-0.17,x
O=C(NC1CCCC1)C1CCN(c2nnc(N3CCCC3=O)s2)CC1,-0.37,0.87
N#Cc1c(-c2cccs2)oc(-n2cccc2)c1-c1cc(Br)cs1,-1.4,x
CCOC(=O)/C(C#N)=C/Nc1ccc2oc(=O)c(NC(C)=O)cc2c1,-2.7,x
